TRPML1 inh: qHTS for Inhibitors of the Human Mucolipin Transient Receptor Potential 1 (TRPML1); 390,000 tested, 0.02% active; activity change, negative = inhibition, % (concentration not given with the values); AID 624415, 2012; TRPML1-inducible cells, Ca2+ dye fluorescence, FDSS; active compounds read low; inhibition of EC80 agonist-evoked calcium signal; in the data active means activity change below about -50%; inconclusive means about -30% to -50%; inactive means above about -30%;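 further: stimulus is agonist 54-4 at its EC80 concentration; on the % scale 0 is the no-effect control and ±100 the full control effect; the text of the record puts the active cut at -80%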
Target sequence (Q9GZU1 whole entry, looked up): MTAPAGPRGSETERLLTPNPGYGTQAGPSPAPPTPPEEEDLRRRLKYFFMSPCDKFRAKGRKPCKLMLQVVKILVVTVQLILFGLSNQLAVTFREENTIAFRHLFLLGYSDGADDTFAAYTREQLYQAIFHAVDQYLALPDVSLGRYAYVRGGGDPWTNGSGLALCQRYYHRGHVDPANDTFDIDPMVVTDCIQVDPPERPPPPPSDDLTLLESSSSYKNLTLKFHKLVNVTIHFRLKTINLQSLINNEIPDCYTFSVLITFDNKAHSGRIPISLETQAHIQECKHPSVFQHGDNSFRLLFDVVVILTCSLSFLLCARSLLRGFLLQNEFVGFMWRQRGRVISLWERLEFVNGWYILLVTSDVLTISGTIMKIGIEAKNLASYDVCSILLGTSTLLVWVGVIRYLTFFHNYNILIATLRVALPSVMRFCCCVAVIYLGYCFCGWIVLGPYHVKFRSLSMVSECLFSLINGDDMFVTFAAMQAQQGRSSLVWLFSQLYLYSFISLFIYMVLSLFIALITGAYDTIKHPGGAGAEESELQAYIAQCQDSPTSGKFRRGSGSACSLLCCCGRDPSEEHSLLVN
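Tet-induced TRPML1-DL cells loaded with Ca8 no-wash calcium dye were read kinetically on FDSS. Compound addition was followed by EC80 agonist 54-4 (4 uM final); inhibition was read over 110 s.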
CtBP-E1A blk: qHTS Assay for Inhibitors of the CtBP/E1A Interaction. CtBP / adenovirus E1A interaction (AlphaScreen). 340,000 tested, 0.49% active. AID 651724, 2012. AlphaScreen GST-E1A/His-CtBP binding, 1536-well; active compounds read low; control for the full effect not named in the record. activity change, % (no concentration beside the values); in the data active means activity change below about -65%; inconclusive means about -30% to -65%; inactive means above about -30%; further: on the % scale 0 is the no-effect control and ±100 the full control effect
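In 5 uL wells, 23 nL compound meets equimolar GST-E1A and His-CtBP (5X stock 125 nM each) for 2 h, 37 °C. Beads (5X, 50 ug/mL) then 1 h, 37 °C, dark.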
D2 agonist: Beta-Arrestin HTS for Positive Allosteric Modulators of the Human D2 Dopamine Receptor: Agonists; D(2) dopamine receptor (Homo sapiens), P14416; DiscoveRx PathHunter D2 beta-arrestin, luminescence, 90 min; 100% = 57 uM dopamine signal; activation, % (no concentration beside the values); 360,000 tested, 0.084% active; in the data active = activation above about 40%; inconclusive = about 15% to 40%; inactive = below about 15%; further: compound concentration not given in the record; the text of the record calls up to 30% inactive
Target sequence (P14416 whole entry, looked up): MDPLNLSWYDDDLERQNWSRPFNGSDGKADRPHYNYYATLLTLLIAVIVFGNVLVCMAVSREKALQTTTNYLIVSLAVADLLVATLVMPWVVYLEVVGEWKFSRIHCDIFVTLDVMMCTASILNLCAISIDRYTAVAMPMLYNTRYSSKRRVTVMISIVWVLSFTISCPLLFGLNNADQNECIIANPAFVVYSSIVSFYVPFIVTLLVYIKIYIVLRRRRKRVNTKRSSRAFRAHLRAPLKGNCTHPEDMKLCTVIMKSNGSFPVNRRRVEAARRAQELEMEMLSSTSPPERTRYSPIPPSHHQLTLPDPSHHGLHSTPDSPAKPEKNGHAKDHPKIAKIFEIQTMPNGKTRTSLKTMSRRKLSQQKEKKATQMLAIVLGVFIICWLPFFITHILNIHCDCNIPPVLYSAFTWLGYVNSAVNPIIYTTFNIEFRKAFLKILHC
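DiscoveRx PathHunter D2 beta-arrestin cells (2,100/well) attached overnight, then compound-stimulated 90 min at 37 C in HBSS/10 mM HEPES/0.1% Tween-20 buffer; beta-galactosidase complementation read by luminescence after 1 h at ambient temperature. Dopamine 57 uM final (EC100) as control.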
TRPML1 ag: qHTS for Agonists of the Human Mucolipin Transient Receptor Potential 1 (TRPML1). Mucolipin-1 (Homo sapiens), Q9GZU1. TRPML1-expressing cells, Ca2+ dye fluorescence, FDSS; host cell line not named in the record; reference of the full effect not given here. activation, % (no concentration beside the values). 410,000 tested, 0.12% active; in the data active = activation above about 50%; inconclusive = about 30% to 50%; inactive = below about 30%; further: 0% is about no effect; the text of the record puts the active cut at 80%
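In this qHTS format, compounds were pin-transferred onto Ca8-dye-loaded TRPML1-DL cells induced with Tet overnight, and intracellular Ca2+ fluorescence was recorded kinetically for 110 s after a 10 s baseline. A subsequent 4uM final 54-4 (EC80) addition followed by a second 110 s read served as the antagonist phase.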
Six1-Eya2 blk: qHTS Assay for Inhibitors of the Six1/Eya2 Interaction; activity change, % (concentration not given with the values); 360,000 tested, 0.56% active; AlphaScreen GST-Six1/His-Eya2 binding, biochemical; active compounds read low; control for the full effect not named in the record; Homeobox protein SIX1 (Homo sapiens) + Protein phosphatase EYA2 (Homo sapiens), …; in the data active = activity change below about -65%; inconclusive = about -30% to -65%; inactive = above about -30%; further: on the % scale 0 is the no-effect control and ±100 the full control effect
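AlphaScreen luminescence read after one hour at 37 °C in darkness. Pin-transferred compounds met GST-Six1 and His-Eya2 protein (5X stock 250 nM/500 nM) plus glutathione donor and Ni-chelate acceptor beads (5X, 50 ug/mL).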
PINK1 expr mod: A Quantitative High throughput Screen to Identify Chemical Modulators of PINK1 Expression; Potency, µM (doses to about 76.6 µM), without a hit: top-dose activation (PINK1 increase), actives largely listed as activators; PINK1 immunofluorescence, high-content cytometry, 24 h; 410,000 tested, 0.2% active; active = well fitted activation curve with a large enough effect; inconclusive = small, poorly fitted or top-dose-only effect; inactive = flat fitted curve, though single readings scatter; cell line not stated here;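 further: potency means the concentration at half of the fitted maximal effect; % of control where 0% means no effect; nearly all actives have a fitted effect of over 65% in size; a mitochondrial uncoupler was the plate control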
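Stable cell line treated 24 h with compounds at 5 concentrations (CCCP controls), then fixed and immunostained for PINK1 plus nuclear and cell stains; PINK1 immunofluorescence quantified by laser-scanning microplate cytometry.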
Starred values were filed as active, the others as inactive; ? = inconclusive; . = not tested or not shown; & = joins results of further samples; [ ] = another dose, or the depositor's remark.

SMILES | TRPML1 inh | CtBP-E1A blk | D2 agonist | TRPML1 ag | Six1-Eya2 blk | PINK1 expr mod
O=Cc1c(N2CCN(c3ccccc3)CC2)nc2ccccn2c1=O | 0.7 | . | -4.1 | 0.1 | -5.3 | -0.5%
COc1ccc(C(=O)N2CCN=C2SCc2cccnc2)cc1OC | -0.7 | 0.1 | -8.7 | -0.6 | -2.5 | 1.8%
COc1ccc(CCNC(=O)c2cnc3n(c2=O)CCS3)cc1OC | -6.3 | 9.1 | 3.6 | 1.1 | 2.0 | ?
CCOC(=O)CCC(NC(=O)CCCCC(=O)NC(CCC(=O)OCC)C(=O)OCC)C(=O)OCC (stereo unspecified) | 0.4 | 14.0 | 0.4 | -0.1 | 3.6 | -1.2%
O=C1/C(=C\c2cccnc2)CN(Cc2ccccc2)C/C1=C\c1cccnc1 | -23.4 | -5.6 | -4.7 | 0.0 | 1.5 | -4.5%
Cn1cc(/C=C2/SC(=O)N(CC(=O)Nc3ccc4c(c3)OCO4)C2=O)c2ccccc21 | 28.6 | 3.5 | -0.3 | 1.5 | 0.2 | 2.8%[38.3 µM]
CC(=O)c1cccc(NC(=O)c2cccc(N3C(=O)c4ccccc4C3=O)c2)c1 | 7.1 | -2.7 | 2.4 | 1.4 | -0.1 | 9.1%
CCN1CCCC1CNC(=O)c1cc2c(OC)cccc2[nH]1 (stereo unspecified) | . | -3.0 | -2.7 | . | 2.4 | -0.7%
COc1ccccc1OCc1nn[nH]n1 | -3.0 | -1.4 | 1.6 | 0.2 | -4.1 | 1.6%
O=c1c(O)c(-c2ccc(O)cc2)oc2cc(O)cc(O)c12 | . | -15.4 | 4.3 | . | -19.2 | 0.1%

4 of the compounds above, with values under each structure.
Results follow in this order: TRPML1 inh, CtBP-E1A blk, D2 agonist, TRPML1 ag, Six1-Eya2 blk, PINK1 expr mod
CC(=O)c1cccc(NC(=O)c2cccc(N3C(=O)c4ccccc4C3=O)c2)c1
  7.1, -2.7, 2.4, 1.4, -0.1, 9.1%
CCN1CCCC1CNC(=O)c1cc2c(OC)cccc2[nH]1 (stereo unspecified)
  ., -3.0, -2.7, ., 2.4, -0.7%
COc1ccccc1OCc1nn[nH]n1
  -3.0, -1.4, 1.6, 0.2, -4.1, 1.6%
O=c1c(O)c(-c2ccc(O)cc2)oc2cc(O)cc(O)c12
  ., -15.4, 4.3, ., -19.2, 0.1%

Additional records:
SMILES | TRPML1 inh | CtBP-E1A blk | D2 agonist | TRPML1 ag | Six1-Eya2 blk | PINK1 expr mod
CCOc1c2ccc(C(=O)NCc3ccc(OC)cc3)cc2nn1CCOC | 1.6 | 2.4 | -0.4 | -0.3 | 8.9 | 1.1%
COc1ccc(C2C3=C(CC(C)(C)CC3=O)Nc3c2c(=O)[nH]c2nc(C)nn32)cc1 (stereo unspecified) | -4.7 | 2.7 | -1.9 | 0.0 | 2.5 | 1.4%[38.3 µM]
COc1cc(OC)c(OC)cc1CNc1sc2c(c1C(=O)Nc1ccccc1OC)CCC2 | -18.0 | . | . | -0.4 | . | 1.8%
COc1ccc(CNC(=O)c2ccc(N3CCC4(CC3)CC(c3ccc(Cl)cc3)=NO4)c([N+](=O)[O-])c2)cc1 | 12.3 | 19.9 | 1.7 | -0.5 | 21.3 | -1.4%
COc1cc(NC(=O)c2cc(C)nc3ccccc23)cc(OC)c1OC | -9.6 | 4.0 | 1.0 | -0.3 | -1.4 | 3.4%
Cc1occc1C(=O)NNC(=S)Nc1ccccc1 | -10.8 | -1.4 | -4.8 | 0.5 | 0.5 | -1.3%[38.3 µM]
NS(=O)(=O)c1ccc(CCNC(=O)CN2CCN(Cc3cccc4ccccc34)CC2)cc1 | -14.9 | 2.1 | -2.1 | 1.6 | -6.6 | -2.1%
O=C(Nc1ccc(F)c(F)c1)C1CCCN1S(=O)(=O)c1cccc2nsnc12 (stereo unspecified) | -5.3 | . | . | -0.8 | . | 1.1%
COc1ccc(C2C(C(=O)N3CCOCC3)CCC(=O)N2c2cc(OC)c(OC)c(OC)c2)cc1 (stereo unspecified) | -4.9 | 2.5 | 1.0 | -0.2 | -3.1 | 1.4%
COC(=O)[C@]12CCCCC=C1N(CCC1=CCCCC1)C(=O)[C@H](CC(=O)NCc1ccc(OC)c(OC)c1)C2 | . | -4.1 | . | -0.5 | -11.0 | -0.5%
Cc1ccc(NCc2nnc(SCC(=O)O)n2Cc2ccccc2)cc1Cl | 16.8 | 1.9 | 7.3 | -0.3 | 5.4 | -2.0%
CCOc1ccc(C2NC(=O)CCC2[N+](=O)[O-])cc1 (stereo unspecified) | -1.7 | 2.7 | -1.2 | -0.4 | -4.3 | -2.0%
CCOc1ccc2nc(C(C)O)[nH]c2c1 (stereo unspecified) | 0.9 | 6.9 | -2.7 | 0.6 | -0.8 | 0.1%[38.3 µM]
Cn1c(COc2ccccc2)nnc1SCC(=O)Nc1ccc(N2CCOCC2)cc1 | -0.2 | 3.3 | 2.3 | -0.5 | 2.5 | -0.7%
COc1cccc(CNC(=O)CNS(=O)(=O)c2ccc3nc(C)sc3c2)c1 | 1.5 | . | . | 1.9 | . | -1.1%
COc1ccc(S(=O)(=O)Nc2nc3ccccc3nc2NCc2ccc3c(c2)OCO3)cc1 | -6.0 | 2.2 | -0.1 | 1.2 | 0.4 | -0.7%
COc1ccc(C(=O)Nc2ccc3nc(C)sc3c2)cc1OC | ? | 1.7 | -3.2 | 0.0 | -2.5 | 3.4%
Cc1cccc(OCC(=O)Nc2ccc3c(c2)nc(CCN2CCCCC2)n3C)c1 | 1.1 | . | -4.9 | 0.8 | -14.1 | 2.3%
COc1cccc(Cn2cc(-c3cccc(C(F)(F)F)c3)nn2)c1 | 48.6 | 18.6 | -2.7 | 2.7&0.5 | 27.2 | 1.1%
COC(=O)c1ccc2nc(NC(=O)CCS(=O)(=O)c3ccccc3)sc2c1 | 2.1 | -6.7 | -2.3 | 0.1 | -1.5 | 11.5%
O=C(Nc1ccc(F)cc1F)c1cc2ccccc2oc1=O | 10.8 | . | -0.7 | -0.6 | 1.9 | 1.0%
Cc1ccc(C(=O)NC2(C(F)(F)F)C(=O)Nc3c2c(=O)[nH]c(=O)n3CCc2ccccc2)cc1 (stereo unspecified) | -6.6 | . | . | -0.6 | . | 0.1%
O=C(O)CC1CCS(=O)(=O)C1 (stereo unspecified) | 4.3 | -3.8 | 0.0 | 0.8 | 5.8 | -1.1%
COc1ccc(OC)c(Nc2nc3ccccc3n3cnnc23)c1 | . | 7.1 | -1.7 | . | -1.6 | 0.7%
CN1CCc2c(sc(NC(=O)c3ccc(S(=O)(=O)N4CCCCCC4)cc3)c2C(N)=O)C1 | -22.6 | -10.4 | -1.2 | 22.5 | 5.3 | -1.9%
CCOC(=O)c1c(O)cc(C)cc1Nc1ccccc1 | 9.3 | 36.3 | -1.5 | 1.5 | 11.1 | ?
COC(=O)CSc1nc(NC(C)(C)C)nc(N(C)C)n1 | 14.6 | -8.5 | 7.0 | 1.9 | 0.2 | 2.1%
Cc1ccc(NC(=O)CSc2nc3ccccc3c(=O)n2CCCC(=O)NCCCN2CCOCC2)cc1C | -3.6 | -6.9 | -5.9 | -0.2 | -7.5 | 3.2%
O=C(CCl)Nc1cc2[nH]c(=O)[nH]c2cc1Br | -2.0 | -11.8 | 0.8 | -1.2 | -13.4 | -0.4%
Cc1nc(-c2ccccc2)sc1-c1ccc(SCC(=O)NCc2ccc(Cl)cc2)nn1 | 11.0 | . | . | -0.1 | . | 0.0%
CC[C@@]1(c2ccccc2OC)C(=O)N(C(=O)OC)N1C(=O)OC | -5.0 | -1.7 | -1.5 | -0.6 | 0.8 | 2.0%
CSCCNC(=O)c1ccc(OC2CCN(CCc3ccccc3)CC2)cc1 | 45.6 | . | -4.5 | 1.4 | -0.4 | -0.9%
CCCCCCCCCCn1c2c(c(=N)c3c1CCC3)CCC2 | -1.5 | -2.9 | -15.5 | 0.4 | 5.3 | -1.0%
CCC(CCC(=O)Nc1ccn(-c2ccccc2)n1)C(=O)O (stereo unspecified) | -10.0 | 3.3 | -1.3 | 3.3 | 2.0 | 1.0%
O=C(O)c1cc([N+](=O)[O-])c(Sc2nc3ccccc3[nH]2)c([N+](=O)[O-])c1 | -20.9 | . | 10.0 | 2.4 | ? | 0.3%
CSc1ncc(S(=O)(=O)c2ccccc2)c(=O)[nH]1 | -9.5 | . | 0.9 | -0.3 | 17.4 | 1.3%
CCOC(=O)CSC1=C(C#N)C(c2ccc(C)o2)CC(=O)N1 (stereo unspecified) | -5.4 | 5.5 | -6.5 | -0.9 | 0.2 | 7.5%
O=C(CCC(=O)N1CCN(c2ccccc2F)CC1)N1CCN(c2ccccc2)CC1 | -4.8 | -0.5 | -0.8 | 0.8 | 0.8 | 1.6%
CCOc1ncccc1C(=O)Nc1ccc2c(c1)OCCCO2 | -0.5 | -25.1 | -2.6 | 2.4 | 1.5 | -4.1%
CCCN(CCC)CCCOC(=O)c1ccc(Cl)cc1Cl | 46.6 | -14.4 | -1.7 | 0.0 | -9.2 | 5.4%
Nc1c(/C=C2/C=CC(=O)C(O)=C2)c(=O)nc2sc(CC(=O)N3CCCC3)nn12 | 11.6 | . | 5.9 | 1.3 | ? | 1.7%
Cc1sc(NC(=S)NC(=O)c2cccs2)nc1-c1ccc(C(C)C)cc1 | 18.8 | 0.0 | -3.0 | 0.3 | -0.1 | 27.6%[38.3 µM]
CCOc1cc(/C=N/NC(N)=O)cc(Br)c1OCc1ccccc1 | . | -13.7 | 1.6 | . | -2.2 | 2.1%
Cc1c(O)ccc2c(=O)c(Oc3ccccc3)coc12 | -17.8 | 0.5 | -3.1 | -0.4 | -0.5 | 3.0%
CC1=C(C(=O)OC2CCCC2)C(c2ccc(C)o2)C2=C(CC(c3cccs3)CC2=O)N1 (stereo unspecified) | 4.4 | -2.9 | -5.2 | -0.4 | -5.7 | 24.4%[38.3 µM]
O=C(CCN1C(=O)c2cccc3cccc(c23)C1=O)N1CCN(Cc2ccc3c(c2)OCO3)CC1 | -3.2 | -3.2 | 0.0 | 2.0 | -1.9 | -5.9%[38.3 µM]
Cc1ccc(C(=O)c2c3ccc(C(F)(F)F)cc3[n+]([O-])n2CCC(N)=O)cc1 | -2.2 | -6.5 | -4.1 | 0.8 | 4.4 | 0.2%
COc1ccc(N2C(=O)CSC23C(=O)N(Cc2cccc(C(F)(F)F)c2)c2ccccc23)cc1 (stereo unspecified) | 14.9 | . | . | 4.0 | . | -1.9%
O=c1cc(-c2ccccc2)nc(SCc2ccc(Cl)cc2)[nH]1 | 6.8 | -0.2 | -0.5 | -1.3 | -4.9 | 1.0%

Assay outcomes as filed in PubChem BioAssay.
